Screening results deposited in PubChem BioAssay by National Center for Advancing Translational Sciences (NCATS).
Rango dissoc inh = inhibition of RanGTP-driven Rango-importin beta dissociation; Biochemical FRET Rango-importin beta, RanGTP-induced dissociation; Potency, µM (doses to about 46.1 µM), without a hit: at the top dose activity change, negative = inhibition; 0.071% of 340,000 active; O95149+P62826; AID 540253; active means falling FRET ratio curve, often poorly fitted, with flat reads before Ran was added; inconclusive means other falling curves, or compound fluorescence or quenching; inactive means flat or rising ratio curve;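 further: potency means the concentration at half of the fitted maximal effect; % of control where 0% means no effect; nearly all actives have a fitted effect of over 45% in size; -100% = wells without RanGTP and RCC1; the record marks most hits as doubtful in a second field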
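Recombinant Rango FRET biosensor (EYFP–snurportin 1 IBB–cerulean CFP10) at 0.1 uM premixed with 0.25 uM importin beta in PBS, 1 mM DTT, 0.02% Tween-20, 0.1% BSA. Compound added 5 min; RanGTP-RCC1 (0.6 uM Ran, 2 mM GTP, 0.2 uM RCC1) then triggers release, read at 45 min.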
miR-21 FLuc = miR-21 reporter, rising signal; HeLa miR-21 FLuc reporter, luciferase, 48 h; Potency, µM (doses to about 38.3 µM), without a hit: at the top dose reporter change, positive = more light; 340,000 tested, under 10 active; active = well fitted rising curve with a large enough effect; inconclusive = small, poorly fitted or top-dose-only effect; inactive = no such curve, though single readings can be large or run the other way;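 further: % of control where 0% means no effect; miR-21 action dims this reporter so a rising signal means less miR-21 action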
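Using DMEM plus 10% FBS, HeLa miR-21-FLuc cells are incubated with test compounds (final up to about 40uM) for 48 hours; firefly luciferase signal is then imaged following reagent-mediated lysis.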
GLA inh pH 4.5 = blocks human alpha-galactosidase A at pH 4.5; activity change, negative = inhibition, % at 105 µM; P06280; purified enzyme, 4-MU-alpha-Gal fluorescence, pH 4.5; 230,000 tested, under 10 active; inconclusive = small, poorly fitted or top-dose-only inhibition, or a rising curve; inactive = flat fitted curve, though single readings scatter; no compound was filed as active;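 further: 0% = full activity with enzyme and -100% = basal without enzyme; dose as in the result columns while the protocol names 77 µM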
Rango complex inh = prevents formation of the Rango-importin beta complex. Potency, µM (titrated, usually from 92.2 µM), inactives show at the top dose inhibition of complex formation. AID 540263. 0.031% of 340,000 active. Q14974. Rango CFP/YFP FRET sensor + importin beta, 45 min; active = rising FRET ratio curve, often small or poorly fitted; inconclusive = mostly compound fluorescence or quenching in the first reads; inactive = flat curves in all reads;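 further: potency means the concentration at half of the fitted maximal effect; 0% = DMSO wells and 100% = buffer wells lacking importin beta; nearly all actives have a fitted effect of over 15% in size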
Target sequence (Q14974 whole entry, looked up): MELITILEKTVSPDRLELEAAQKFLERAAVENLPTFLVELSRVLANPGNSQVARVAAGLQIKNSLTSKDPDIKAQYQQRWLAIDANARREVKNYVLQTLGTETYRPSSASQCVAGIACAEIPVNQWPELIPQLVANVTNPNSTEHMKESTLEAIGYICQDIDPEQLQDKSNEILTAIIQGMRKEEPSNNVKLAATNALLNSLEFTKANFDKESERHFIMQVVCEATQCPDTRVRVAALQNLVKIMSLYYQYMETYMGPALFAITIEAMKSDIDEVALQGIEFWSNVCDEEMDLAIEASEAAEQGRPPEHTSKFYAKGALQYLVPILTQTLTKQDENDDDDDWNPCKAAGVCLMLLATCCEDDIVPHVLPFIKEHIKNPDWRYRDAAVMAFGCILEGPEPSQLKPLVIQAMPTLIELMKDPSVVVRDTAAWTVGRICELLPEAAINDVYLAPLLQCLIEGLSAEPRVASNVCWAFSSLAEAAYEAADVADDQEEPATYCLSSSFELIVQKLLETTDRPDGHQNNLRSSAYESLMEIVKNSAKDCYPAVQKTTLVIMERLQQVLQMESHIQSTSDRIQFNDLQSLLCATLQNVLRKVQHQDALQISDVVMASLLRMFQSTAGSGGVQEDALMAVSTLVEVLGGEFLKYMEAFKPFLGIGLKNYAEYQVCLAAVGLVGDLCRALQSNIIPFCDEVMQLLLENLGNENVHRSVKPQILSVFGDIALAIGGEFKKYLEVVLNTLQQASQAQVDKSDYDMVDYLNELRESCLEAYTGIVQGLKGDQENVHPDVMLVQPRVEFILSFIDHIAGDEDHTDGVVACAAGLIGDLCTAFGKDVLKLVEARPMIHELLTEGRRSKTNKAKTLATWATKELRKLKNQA
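FRET biosensor Rango (snurportin 1 IBB between N-terminal EYFP and C-terminal Cerulean), 50 nM in PBS/1 mM DTT/0.02% Tween-20/0.1% BSA, preincubated 5 min RT with compound; 0.125 microM importin beta added, 45 min RT, CFP/YFP FRET ratio read.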
* hit, by the source's call; ? = inconclusive; / = no result given; & = joins results of further samples.

Preview, 12 compounds:
#1 CCC(CC)CN1CCC(CN2CCNC(=O)C2=O)CC1
#2 COc1ccc(NC(=O)c2nc[nH]c2C(=O)N[C@@H](CC(C)C)C(=O)OC(C)(C)C)cc1
#3 O=C(Nc1ccc(F)cc1F)Nc1ccccc1C(=O)NCCN1CCNC1=O
#4 COc1ccccc1C(=O)NCC(=O)NNc1ncnc(N)c1[N+](=O)[O-]
#5 CCN(CC)C(=O)Cn1cc(C(=O)C(=O)N2CCN(Cc3ccccc3)CC2)c2ccccc21
#6 CCOc1ncccc1C(=O)OCC(=O)NCc1ccc(C(=O)OC)cc1
#7 Cc1ccc2c(c1)N(C(=O)CCC(=O)O)CCO2
#8 COC(=O)c1cc(CNC(=O)c2ccccc2OCc2c(C)noc2C)ccc1OC
#9 CCOC(=O)N1CCN(C(=O)c2ccc(CS(=O)Cc3ccc(C)cc3)o2)CC1 (stereo not given)
#10 CC(=O)c1c(C)[nH]c(C(=O)OCC(=O)Nc2ccc3[nH]c(=O)[nH]c3c2)c1C

screen / no.,1,2,3,4,5,6,7,8,9,10
Rango dissoc inh,-16.3%,2.0%,1.2%,/,8.4%,5.7%,-5.9%,9.4%,-14.0%,0.5%
miR-21 FLuc,/,0.3%,0.2%,-15.3%,-3.3%,/,-0.9%,-8.6%,0.4%,/
GLA inh pH 4.5,/,0.6,3.1,-0.6,/,/,-2.6,/,/,/
Rango complex inh,0.7%,1.7%,-3.5%,/,4.5%,-4.2%,0.3%,-1.6%,-5.2%,-0.9%

#11 Clc1ccc(-c2csc(NNC3=NCCCCC3)n2)cc1
#12 CCCn1c(NCc2ccccn2)nc2ccccc21

screen / no.,11,12
Rango dissoc inh,-4.9%,16.2%
miR-21 FLuc,-4.0%,-23.4%
GLA inh pH 4.5,2.6,-2.7
Rango complex inh,-1.4%,-4.5%

This part in full, repeating the preview:
#1 CCC(CC)CN1CCC(CN2CCNC(=O)C2=O)CC1
#2 COc1ccc(NC(=O)c2nc[nH]c2C(=O)N[C@@H](CC(C)C)C(=O)OC(C)(C)C)cc1
#3 O=C(Nc1ccc(F)cc1F)Nc1ccccc1C(=O)NCCN1CCNC1=O
#4 COc1ccccc1C(=O)NCC(=O)NNc1ncnc(N)c1[N+](=O)[O-]
#5 CCN(CC)C(=O)Cn1cc(C(=O)C(=O)N2CCN(Cc3ccccc3)CC2)c2ccccc21
#6 CCOc1ncccc1C(=O)OCC(=O)NCc1ccc(C(=O)OC)cc1
#7 Cc1ccc2c(c1)N(C(=O)CCC(=O)O)CCO2
#8 COC(=O)c1cc(CNC(=O)c2ccccc2OCc2c(C)noc2C)ccc1OC

screen / no.,1,2,3,4,5,6,7,8
Rango dissoc inh,-16.3%,2.0%,1.2%,/,8.4%,5.7%,-5.9%,9.4%
miR-21 FLuc,/,0.3%,0.2%,-15.3%,-3.3%,/,-0.9%,-8.6%
GLA inh pH 4.5,/,0.6,3.1,-0.6,/,/,-2.6,/
Rango complex inh,0.7%,1.7%,-3.5%,/,4.5%,-4.2%,0.3%,-1.6%

#9 CCOC(=O)N1CCN(C(=O)c2ccc(CS(=O)Cc3ccc(C)cc3)o2)CC1 (stereo not given)
#10 CC(=O)c1c(C)[nH]c(C(=O)OCC(=O)Nc2ccc3[nH]c(=O)[nH]c3c2)c1C
#11 Clc1ccc(-c2csc(NNC3=NCCCCC3)n2)cc1
#12 CCCn1c(NCc2ccccn2)nc2ccccc21
#13 COc1cccc(CN(CC(=O)NCC2CCCO2)C(=O)CNS(=O)(=O)c2ccccc2)c1 (stereo not given)
#14 O=C(Nc1ccc(Cl)c(Cl)c1)Nc1nnc(CSc2ccccc2)s1
#15 Cc1cc(C)n2nc(C(=O)OCC(=O)NC3CCCCC3)nc2n1
#16 CCCCN1C(=O)C(=O)N(CC(=O)Nc2ccccc2C(C)=O)C1=O

screen / no.,9,10,11,12,13,14,15,16
Rango dissoc inh,-14.0%,0.5%,-4.9%,16.2%,-21.4%,-8.9%,-7.5%,7.9%
miR-21 FLuc,0.4%,/,-4.0%,-23.4%,/,-3.8%,/,/
GLA inh pH 4.5,/,/,2.6,-2.7,/,-3.8,/,/
Rango complex inh,-5.2%,-0.9%,-1.4%,-4.5%,-4.6%,3.2%,0.2%,-3.1%

#17 COc1ccc(CC(=O)Nc2c(C(N)=O)oc3ccccc23)cc1OC
#18 COc1cc(NC(=O)c2ccc(S(=O)(=O)N(C)c3ccccc3OC)cc2)cc(OC)c1
#19 CC(=O)Nc1ccc(NC(=O)CSc2nc3ccccc3nc2N2CCCCC2)cc1
#20 NC(=O)NCC12CC3CC(CC(C3)C1)C2
#21 CC(=O)Nc1ccc(S(=O)(=O)N2CCN(c3nc(NC4CCCC4)c4ccccc4n3)CC2)cc1
#22 Cc1ccc(-n2c(SCC(=O)N/N=C/c3ccc(C)s3)nnc2-c2ccccc2)cc1
#23 COc1ccccc1Nc1nc2nonc2nc1N1CCC(C)CC1
#24 Cc1ccc(NC2=NCC(=O)N2Cc2ccc3c(c2)OCO3)cc1

screen / no.,17,18,19,20,21,22,23,24
Rango dissoc inh,-5.7%,-9.8%,-3.1%,14.3%,24.3%,1.2%,0.6%,-3.9%
miR-21 FLuc,14.3%,/,-4.3%&2.0%,-16.3%,-5.2%,-7.1%,-5.8%,-14.7%
GLA inh pH 4.5,/,/,/,-5.5,0.1,-5.3,-1.0,-1.1
Rango complex inh,0.3%,0.1%,-5.7%,1.2%,7.4%,0.9%,-0.2%,-1.0%

#25 Cc1ccc(C(=O)Nc2nc(-c3ccccn3)cs2)o1
#26 Oc1c(Cl)cc(Cl)cc1Sc1cc(Cl)cc(Cl)c1O
#27 COc1ccccc1NS(=O)(=O)c1cc(NC(=O)CC(C)(C)C)ccc1N1CCOCC1
#28 CC(C)N(CCCNC(=O)Cn1ncc2c([nH]c3ccccc32)c1=O)Cc1ccccc1
#29 Cc1cccc(N2CCN(S(=O)(=O)c3ccc4c(c3)NC(=O)C(C)S4)CC2)c1C (stereo not given)
#30 O=C1NC(=Nc2cccc(O)c2)S/C1=C\c1cccnc1
#31 Cc1ccc(NC(=O)CN2CCOCC2)cc1
#32 C/C(=N\NC(=O)c1c(Cl)cnn1C)c1ccc(NC(=O)c2ccc(Br)o2)cc1

screen / no.,25,26,27,28,29,30,31,32
Rango dissoc inh,-0.5%,/,-0.3%,-15.5%,10.7%,-8.0%,10.1%,0.7%
miR-21 FLuc,21.3%,?,-0.9%,-2.3%&-0.3%,16.7%,-39.7%,-14.0%,-41.6%
GLA inh pH 4.5,-12.6,4.4&-2.2,-2.7,/,/,-1.0,/,/
Rango complex inh,?,/,-0.5%,0.1%,-0.7%,-1.1%,0.3%,0.0%

#33 O=C(Nc1ccc2c(c1)CCC2)c1ncoc1-c1ccccc1F
#34 Cc1ccc(-c2cc3ccccc3nc2N)cc1
#35 Cc1c(OCC(=O)N2CCC(C(N)=O)CC2)ccc2c3c(c(=O)oc12)CCCC3
#36 Cc1ccc(SCc2c(-c3ccccc3)nn(C)c2Cl)cc1
#37 COC(=O)c1ccc(CSc2nnc(NCc3ccccc3)s2)o1
#38 CC(CCc1ccco1)NC(=O)c1cccc2c1C(=O)N(C1CCCCC1)C2 (stereo not given)
#39 CN(Cc1nc(CC2CC2)no1)CC12CC3CC(CC(C3)C1)C2
#40 COCCN(C(=O)CSc1nnc(C)n1-c1ccc(C)cc1)c1c(N)n(Cc2ccccc2)c(=O)[nH]c1=O

screen / no.,33,34,35,36,37,38,39,40
Rango dissoc inh,4.0%,-7.8%,1.4%,8.9%,-4.0%,18.1%,-6.3%,-3.1%
miR-21 FLuc,-39.8%,-28.6%,-2.6%,7.9%,-18.0%,0.5%,-3.6%,/
GLA inh pH 4.5,/,/,/,8.3,-4.1,-6.6,-1.7,/
Rango complex inh,2.4%,-0.7%,2.5%,-0.6%,-0.4%,5.5%,0.8%,-2.8%

Reformatted: two of the compounds above
Every second line gives: Rango dissoc inh, miR-21 FLuc, GLA inh pH 4.5, Rango complex inh
35) Cc1c(OCC(=O)N2CCC(C(N)=O)CC2)ccc2c3c(c(=O)oc12)CCCC3
    1.4%, -2.6%, /, 2.5%
36) Cc1ccc(SCc2c(-c3ccccc3)nn(C)c2Cl)cc1
    8.9%, 7.9%, 8.3, -0.6%

Next part
#41 Cc1ccc(C(=O)N(C)CCOc2ccccc2)cc1S(=O)(=O)N1CCCCC1
#42 Clc1ccc(/C=N/Nc2nnc(-c3ncc[nH]3)c3ccccc23)cc1
#43 O=C1C2C3C=CC(CC3)C2C(=O)N1c1cccc(Br)c1 (stereo not given)
#44 C=CCNC(=O)C1CC2Cn3c(nc4cc(Cl)c(Cl)cc43)C2N1C (stereo not given)
#45 COCc1cc(C)nc(N2CCOCC2)c1C#N
#46 CCCC(C)NC(=O)c1cccc(Oc2ccccc2)c1 (stereo not given)
#47 CCN(CC)S(=O)(=O)c1cccc(C(=O)OCC(=O)NCc2ccccc2OC)c1
#48 COc1ccc(CN2CCNC(=O)C2CC(=O)NCCc2nc(C)c(C)s2)c(OC)c1 (stereo not given)

screen / no.,41,42,43,44,45,46,47,48
Rango dissoc inh,2.0%,30.9%,6.6%,-0.7%,-3.6%,-19.9%,-24.5%,-1.4%
miR-21 FLuc,/,-12.9%,-0.8%,/,1.8%,-42.6%,/,-3.0%
GLA inh pH 4.5,/,-4.4,/,/,10.0,1.5,/,-3.0
Rango complex inh,-2.0%,4.6%,0.3%,3.4%,?,1.1%,-1.8%,0.5%

#49 COc1ccc(CCNC(=O)C2CCN(C(=O)c3ccc(Cl)cc3)CC2)cc1
#50 COc1ccccc1-c1nnc(SCC(=O)NCc2cccs2)n1N
#51 O=C1CN=CN=CN1c1ccc(Cl)cc1Cl
#52 Cc1ccnc(SCCn2c(N3CC(C)OC(C)C3)nc3c2c(=O)n(C)c(=O)n3C)n1 (stereo not given)
#53 O=C(c1ccc(S(=O)(=O)NCC2CCCO2)cc1)N1CCc2ccccc21 (stereo not given)

screen / no.,49,50,51,52,53
Rango dissoc inh,8.5%,-11.3%,1.5%,2.2%,3.4%
miR-21 FLuc,-1.1%,-1.2%,-17.0%,-0.1%,13.9%
GLA inh pH 4.5,/,-4.9,-6.6,3.2,-2.1
Rango complex inh,0.5%,2.6%,-3.4%,2.0%,-2.3%

A portion of the library, so the mix of outcomes need not match the whole.
